Screening results deposited in PubChem BioAssay by National Center for Advancing Translational Sciences (NCATS).
TRPV1 PAM: potentiators of human vanilloid receptor 1 (TRPV1) | AID 540277 | TRPV1-expressing cells, Fluo-8 calcium influx, capsaicin EC20 potentiation; host cell line not named in the record; control for the full effect not named in the record | actives 0.02% (n = 320,000) | potentiation, % at 8.33 µM; active means potentiation above 80%; inconclusive means 30% to 80%; inactive means below 30%; note: 0% is about no effect
Target sequence (Q8NER1 whole entry, looked up): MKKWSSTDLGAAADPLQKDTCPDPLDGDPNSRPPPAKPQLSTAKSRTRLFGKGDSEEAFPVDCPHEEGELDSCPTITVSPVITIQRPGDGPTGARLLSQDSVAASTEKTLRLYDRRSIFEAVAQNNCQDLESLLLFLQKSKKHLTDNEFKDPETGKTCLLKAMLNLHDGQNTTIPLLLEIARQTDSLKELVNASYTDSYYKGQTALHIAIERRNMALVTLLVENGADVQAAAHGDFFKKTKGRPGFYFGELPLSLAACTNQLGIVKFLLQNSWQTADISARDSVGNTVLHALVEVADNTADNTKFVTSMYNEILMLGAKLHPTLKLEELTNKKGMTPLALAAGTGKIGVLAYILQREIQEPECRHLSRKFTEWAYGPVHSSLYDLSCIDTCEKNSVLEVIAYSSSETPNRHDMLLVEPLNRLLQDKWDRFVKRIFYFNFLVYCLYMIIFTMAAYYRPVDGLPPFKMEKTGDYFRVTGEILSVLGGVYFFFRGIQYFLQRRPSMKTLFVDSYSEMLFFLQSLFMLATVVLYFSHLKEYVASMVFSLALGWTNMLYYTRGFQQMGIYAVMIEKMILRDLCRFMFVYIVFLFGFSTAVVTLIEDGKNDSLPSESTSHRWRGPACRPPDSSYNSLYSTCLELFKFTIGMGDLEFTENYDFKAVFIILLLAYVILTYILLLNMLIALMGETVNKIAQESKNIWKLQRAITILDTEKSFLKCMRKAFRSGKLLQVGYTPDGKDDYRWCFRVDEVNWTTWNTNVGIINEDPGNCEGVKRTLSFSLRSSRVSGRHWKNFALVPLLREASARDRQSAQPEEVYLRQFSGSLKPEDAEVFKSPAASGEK
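Fluo-8 calcium influx in TRPV1-expressing cells, kinetic read (ex 480/em 520 nm). Compound added and read 3 min for agonist activity, followed by capsaicin at EC20 final and 2 min further read for enhancement.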
ClpP mod: qHTS Assay for Activators of ClpP; purified B. subtilis ClpP, FRET peptide cleavage, 20 min; ATP-dependent Clp protease proteolytic subunit (Bacillus subtilis (strain 168)), P80244; Potency, µM (top dose mostly 57.5 µM), for inactives: at the top dose activity change, negative = active; actives 1.9% (n = 340,000); AID 651965, 2013; active = well fitted falling curve with a large enough effect; inconclusive = small, poorly fitted or top-dose-only effect; inactive = no such curve, though single readings can be large or run the other way; note: potency is the fitted concentration of half-maximal effect; the source files actives as falling curves though it sought activators and does not explain the sign; nearly all actives have a fitted effect of over 65% in size; many hits overshoot -100%
Target sequence (P80244 whole entry, looked up): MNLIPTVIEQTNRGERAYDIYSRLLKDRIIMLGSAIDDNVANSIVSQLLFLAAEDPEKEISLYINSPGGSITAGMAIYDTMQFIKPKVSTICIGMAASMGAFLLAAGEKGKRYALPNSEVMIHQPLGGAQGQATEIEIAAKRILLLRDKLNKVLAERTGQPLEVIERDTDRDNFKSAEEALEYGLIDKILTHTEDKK
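FRET quenching reversal measured ClpP activation: 10 microg/mL B. subtilis ClpP at pH 8 with the FRET-FV decapeptide, read at 430 nm after 320 nm excitation. The 20-min minus 0-min signal was scaled between DMSO/no-enzyme wells and ADEP (5.8 microM final).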
TRPML1 ag: agonists of human TRPML1 channel. TRPML1-expressing cells, Ca2+ dye fluorescence, FDSS; host cell line not named in the record; reference of the full effect not given here. actives 0.12% (n = 410,000). AID 624414. activation, % (concentration not given with the values); in the data active = activation above about 50%; inconclusive = about 30% to 50%; inactive = below about 30%; note: 0% is about no effect; the text of the record puts the active cut at 80%
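Tet-induced TRPML1-DL cells, 1,500 per well, cultured overnight, were loaded with a no-wash Ca2+ dye for 45–90 min. Calcium fluorescence was recorded on the FDSS for 110 s after compound addition, before the EC80 agonist (4 uM 54-4) was added.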
Sfp inh: blocks B. subtilis Sfp PPTase activity; Q9F4F7; Biochemical Sfp PPTase activity, qHTS; AID 1490; actives 3.5% (n = 310,000); Potency, µM, without a hit: max response, negative = inhibition, hits mostly inhibitors; active = well fitted inhibition curve with a large enough effect; inconclusive = small, poorly fitted or top-dose-only effect, or another doubt; inactive = no such curve, though single readings can be large or run the other way;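 note: the enzyme is Sfp with the accession as filed and its product quenches rhodamine fluorescence; potency is the fitted concentration of half-maximal effect; 0% = enzyme reaction without inhibitor and -100% = no enzyme wells; top concentration of the series not given in the record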
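Step 1, compound plus 15 nM Sfp-PPTase, 15 min, room temperature. Step 2, add rhodamine-CoA (5 uM) and BHQ-2-YbbR (12.5 uM). Step 3, read 525/598 nm fluorescence at 0 and 30 min.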
PINK1 modulator: PINK1 expression modulation | PINK1 immunofluorescence, high-content cytometry, 24 h | Potency, µM (series often up to 76.6 µM), for inactives: at the top dose activation (PINK1 increase), hits mostly activators | actives 0.2% (n = 410,000); active = well fitted activation curve with a large enough effect; inconclusive = small, poorly fitted or top-dose-only effect; inactive = flat fitted curve, though single readings scatter; cell line not stated here;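 note: potency is the fitted concentration of half-maximal effect; % of control where 0% means no effect; nearly all actives have a fitted effect of over 65% in size; a mitochondrial uncoupler was the plate control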
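Stable cell line, 250 cells/well, 12 h attachment; compounds pinned at 5 concentrations, 24 h; CCCP control. Fixed with nuclear dye, primary antibodies 12 h at 10 degrees C, secondary plus cell stain; laser-scanning cytometer read.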
TRPML1 inh: blocks the human TRPML1 channel; TRPML1-inducible cells, Ca2+ dye fluorescence, FDSS; stronger effect = lower value; inhibition of EC80 agonist-evoked calcium signal; activity change, negative = inhibition, % (concentration not given with the values); actives 0.02% (n = 390,000); AID 624415; in the data active means activity change below about -50%; inconclusive means about -30% to -50%; inactive means above about -30%;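 note: stimulus is agonist 54-4 at its EC80 concentration; % is set by controls: 0 for no effect and ±100 for the full control effect; compound concentration not given in the record; the text of the record puts the active cut at -80%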
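Tet-induced TRPML1-DL cells loaded with Ca8 no-wash calcium dye were read kinetically on FDSS. Compound addition was followed by EC80 agonist 54-4 (4 uM final); inhibition was read over 110 s.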
Menin MLL FP FL: menin-MLL binding inhibition, fluorescein peptide | Fluorescence polarization, fluorescein-MLL peptide displacement from menin | FP activity change, % at 61.4 µM | 290,000 tested, under 10 active; inconclusive = falling polarisation curve, or a change in total fluorescence; inactive = total fluorescence flat and polarisation flat or rising; no compound was filed as active; the % refers to the polarisation; negative = inhibition;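 note: % of control where 0% means no effect; inhibitors lower the polarisation; unlabelled MLL peptide was the positive control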
Active calls of the source: *; ? = inconclusive; . = not tested or not shown; & = joins results of further samples; [ ] = dose if it differs, or a comment.

SMILES	TRPV1 PAM	ClpP mod	TRPML1 ag	Sfp inh	PINK1 modulator	TRPML1 inh	Menin MLL FP FL
CCCCn1c(N)c(C(=S)NC(=O)CC(C)(C)C)c(=O)n(C)c1=O	-2	0.3%	1.2	25%	16%	15	1.9
COc1ccc(C(=O)O)cc1S(=O)(=O)Nc1cc(C(F)(F)F)ccc1N1CCCCC1	.	3.7%	-0.8	.	-0.8%	-5	.
Cc1c(Cl)cccc1NC(=O)c1cc(S(=O)(=O)N2CCCCC2)cn1C	.	1.4%	1.1	.	-4.1%	-12	.
CC1Cc2ccccc2N1C(=O)Cn1cc([N+](=O)[O-])ccc1=O (configuration not stated)	.	0.1%	-0.5	.	-0.1%	-9	.
Cc1cc(C)c(S(=O)(=O)N2CCC(n3c(C(F)(F)F)nc4cccnc43)CC2)c(C)c1	.	-1.7%	0.1	.	-0.7%	0	.
Cc1ccc(-n2cccn2)cc1	2	.	-0.4	6%	2.6%	13	-0.9
C/C=C/C=C\C(=O)Nc1cccc(C2=NOC3(C2)C[C@H](C(N)=O)N(C(=O)CC#N)C3)c1 (some centres not stated)	-6	-0.9%	-0.3	13µM*	3.8%	-4	-0.7
Cc1ccc(NC(=O)CSc2nc(=O)n3cc(C)ccc3n2)c(C)c1	11	-3.6%	1.1	.	-1.0%	21	.
Cc1c(Cl)cccc1NC(=O)c1cccc(NC(=O)CCC(=O)O)c1	-1	1.2%	1.6	6%	3.6%	50	1.5
COC(=O)[C@H](CC(C)C)NC(=O)Nc1ccccc1F	-25	0.3%	0.8	19%	1.3%	-6	-0.5
O=C(NN=Cc1ccccc1O)C(O)(c1ccccc1)c1ccccc1	.	4.6%	-0.4	.	-4.8%	4	.
CCCNC(=O)c1ccc2nc(CCc3ccccc3)oc2c1	.	-1.4%	-0.5	.	2.2%	40	.
COc1ccccc1/C=c1\sc2nc(-c3ccccc3OC)nn2c1=O	?	-8.2%	0.1	-36%	1.9%	-13	3.0
COc1ccc(/C=C(\NC(=O)c2ccc(C)cc2)C(=O)Nc2c(C)n(C)n(-c3ccccc3)c2=O)cc1	0	0.5%	2.3	7%	-0.6%	-6	0.0
CC(=O)N1CCN(S(=O)(=O)c2cccc(C(=O)Nc3ccc4c(c3)CCC4)c2)CC1	-3	-3.4%	1.9	5%	0.0%	16	0.1
CCC(=O)OCC(=O)C1(OC(=O)CC)[C@H](C)C[C@H]2[C@H]3[C@H]([C@@H](O)C[C@@]21C)[C@@]1(C)C=CC(=O)C=C1C[C@H]3Cl (some centres not stated)	-2	0.5%	1.5	.	4.4%	-9	.
OC(CSc1ccccc1)CN1CCN(c2ccccc2)CC1 (configuration not stated)	.	0.5%	-0.4	.	1.3%	-6	.
COc1ccc(S(=O)(=O)N(Cc2cccs2)C2CCCC2)cc1	17	-2.9%	2.7	2%	0.7%	5	5.2
Cc1cc(C(=O)Nc2ccc(Cl)cc2)c2c(C)nn(-c3ccccc3)c2n1	.	-5.2%	-0.7	.	-0.3%	6	.
CCOC(=O)C1CCN(C(=O)c2cccc(C(=O)N3CCC(C(=O)OCC)CC3)c2)CC1	16	1.2%	0.1	8%	?	12	-1.7
Cc1cnc(C(=O)OCC(=O)Nc2cc(S(=O)(=O)N3CCOCC3)ccc2Cl)cn1	.	0.6%	0.8	.	1.3%	10	.
COc1ccccc1C(=O)N/C(=C\c1cn(S(=O)(=O)N(C)C)c2ccccc12)C(=O)NCCCN1CCOCC1	-5	-0.3%	1.1	2%	8.5%	57	8.3
Cn1nc(C(=O)OCC(=O)Nc2cc(Cl)ccc2C#N)c2ccccc2c1=O	2	-0.1%	-0.4	.	4.9%	-7	.
COc1cccc(-c2cc(CC3(O)CCN(CCCc4ccccc4)CC3)on2)c1	0	-4.7%	0.2	7%	6.9%	-5	8.5
CC1=C(C(=O)OC(C)C)C(c2ccc(C)o2)C(C(=O)OC(C)C)=C(C)N1	-38	.	1.3	16%	2.4%	20	1.5

Later entries.
SMILES	TRPV1 PAM	ClpP mod	TRPML1 ag	Sfp inh	PINK1 modulator	TRPML1 inh	Menin MLL FP FL
CCOc1ccc(CN2CCN(S(=O)(=O)c3ccc(Cl)cc3)CC2)cc1	.	2.9%	0.9	.	0.7%	-5	.
Cc1ccc(CNC(=O)c2c(-c3ccccc3)noc2C)cc1	-5	.	1.7	5%	3.7%	9	6.2
CC(C)CCN1C(=O)CCC1(C)C(=O)NC1CCCCCC1 (configuration not stated)	7	1.0%	-0.6	23%	0.0%[38.3 µM]	10	-1.3
Cc1ccc(C2C3C(=O)N(c4ccccc4)C(=O)C3N3CCCN23)cc1 (configuration not stated)	1	0.2%	-0.7	-3%	-0.1%	-8	3.0
Cc1cccc2c(=O)c(Br)c(C)n(Cc3ccccc3)c12	3	.	2.7	11%	5.1%	10	1.7
CCC1=NN(C(=O)Cc2ccc([N+](=O)[O-])cc2)C(O)(c2ccncc2)C1 (configuration not stated)	-1	.	0.5	21%	0.0%	-13	-1.0
CCC(=O)NC(c1cccs1)c1ccc2cccnc2c1O (configuration not stated)	2	1.7%	2.1	?	7.7%	-14	3.5
O=C(CCN1C(=O)/C(=C/c2ccc(Cl)cc2)SC1=S)NCCCn1ccnc1	13	0.7%	0.3	3%	1.2%	-6	.
Cc1cc(C)cc(N(CC(=O)N2CCCCCC2)S(C)(=O)=O)c1	-10	.	-0.6	8%	0.7%	5	-7.3
Cc1ccc(CCSCC(=O)O)cn1	0	0.8%	-0.6	16%	5.2%[38.3 µM]	-8	4.7
Cc1ccc(Cc2ccccc2C(=O)O)cc1	.	15%	-0.4	.	2.2%	2	.
Cc1cccc(NS(=O)(=O)c2ccc(C(=O)NCC(c3ccco3)N(C)C)cc2)c1C (configuration not stated)	-7	-6.5%	3.0	6%	3.3%	-3	.
O=S(=O)(c1ccccc1)N1N=C(c2ccc(O)cc2)CC1c1ccco1 (configuration not stated)	-17	-1.4%	1.3	?	0.2%	-5	.
Cc1cc(C)c2oc(C(=O)Nc3ccc(S(=O)(=O)N4CCCCCC4)cc3)cc(=O)c2c1	.	-1.0%	0.9	.	8.3%	-4	.
S=c1[nH]ncn1/N=C/c1ccccc1	-2	0.3%	-0.3	?	1.5%	-12	-1.6
CC1=CC(C)(C)Nc2ccc(OC(=O)c3ccco3)cc21	-8	-20%	2.3	-8%	.	2	2.3
N#Cc1ccc(N2CCc3ccccc3C2)c([N+](=O)[O-])c1	6	0.7%	1.3	45µM*	1.0%	51	6.1
CCOCCCNC(=O)Cn1cnc2c(cnn2-c2ccc(F)cc2)c1=O	4	-5.7%	0.3	17%	1.8%	76	-2.7
CCCNC(=O)CN1CCN(S(=O)(=O)c2ccc(Br)s2)CC1	10	-4.3%	0.5	.	-1.5%	32	.
O=C(O)c1ccc(-c2nnn(Cc3cccc(C(F)(F)F)c3)n2)cc1	9	1.1%	-0.5	-1%	0.4%	-6	-3.0
CCOC(=O)C(C(=O)c1ccccc1)C1CC(C)NC(=S)N1 (configuration not stated)	-8	0.7%	-0.4	-3%	1.3%	-7	4.3
CS(=O)(=O)Nc1ccc2[nH]c(=O)[nH]c2c1	-3	.	-0.1	10%	-2.2%	-8	0.2
COc1ccccc1Cc1c(-c2ccc(C#N)cc2)nc2c(Cl)cc(C(F)(F)F)cn12	.	-12%	3.8	.	10%	.	.
O=S1(=O)CCC(NC2CCCC2)C1 (configuration not stated)	4	-1.1%	-0.5	-7%	2.0%	10	-5.5
CC(NC(=O)c1ccccc1NS(C)(=O)=O)c1ccccc1 (configuration not stated)	5	16µM*	-0.4	8%	-2.7%	17	1.4

Next section
SMILES	TRPV1 PAM	ClpP mod	TRPML1 ag	Sfp inh	PINK1 modulator	TRPML1 inh	Menin MLL FP FL
CCCN1CCC(N2CCN(c3cccc(C(F)(F)F)c3)CC2)CC1	2	1.2%	0.2	-12%	-2.0%[38.3 µM]	-23	4.6
O=C(O)c1ccccc1CC(CCc1ccccc1)C(=O)O (configuration not stated)	.	.	0.3	.	-1.0%	4	.
COc1cccc(Cn2c(=O)n(CCc3ccccc3)c(=O)c3c2c2cc(OC)ccc2n3C)c1	.	-11%	0.1	.	-0.8%	-5	.
O=C(N/N=C/c1cccnc1)C(O)(c1ccccc1)c1ccccc1	-1	-0.2%	0.0	24%	0.3%	7	4.2
CC(C)C[C@@H](CO)NS(=O)(=O)c1cc(Cl)ccc1F	.	1.5%	-1.0	.	0.5%	41	.
COC(=O)N/N=C\c1ccc(OC/C=C/c2ccccc2)c(OC)c1	-7	-12%	1.1	19%	-0.3%	-10	.
CCc1cc(C(=O)N2CCCC(Nc3ccc(F)c(F)c3)C2)n(C)n1 (configuration not stated)	-24	0.4%	0.4	12%	-1.0%	21	5.4
COc1ccc(NC(=O)C2Cc3c(-c4cccc(NC(C)=O)c4)ccnc3O2)cn1 (configuration not stated)	.	-23%	0.1	.	8.1%	.	.
O=C(/C=C/c1ccc([N+](=O)[O-])cc1)NCCSCc1ccco1	-13	-2.1%	0.9	-12%	-0.2%	-4	4.8
CN(C)c1ccc(/C=C/C(=O)c2ccc(O)cc2)cc1[N+](=O)[O-]	-1	1.3%	1.4	-7%	2.0%	-11	6.4
CCc1ccc(C(=O)OCC(=O)N(CCOC)c2c(N)n(Cc3ccccc3)c(=O)[nH]c2=O)cc1	1	0.7%	-0.7	.	-1.3%	-12	.
CCCCC(=O)Nc1sc2c(c1C(N)=O)CCC2	-2	-25%	-0.2	3%	-1.1%[38.3 µM]	-12	1.9
CCNC(=O)CSc1nc2cc(S(=O)(=O)Nc3ccc(OC)cc3)ccc2o1	-3	-1.1%	0.5	19%	2.4%	-15	.
CC(CC(=O)N1CCc2ccccc21)n1cccn1 (configuration not stated)	-11	-0.1%	0.3	19%	0.9%	-4	-0.1
O=C(NCc1ccco1)c1cccc2ccccc12	4	-4.0%	-0.7	8%	0.1%	8	4.6
COc1ccccc1N1CCN(CCCCN2C(=O)c3ccccc3C2=O)CC1	.	-5.7%	-0.1	17%&14%	-0.3%	12	?
Cc1nc(SCC(=O)c2ccc(F)c(F)c2)[nH]c(=O)c1Oc1ccc(Cl)cc1	-1	1.0%	-1.3	-3%	3.3%	-6	-0.8
